gsp antagonist – gsp mutant antagonism; gsp-mutant cells, cAMP HTRF, 30 min; control for the full effect not named in the record; Potency, µM (series often up to 76.9 µM), for inactives: at the highest dose activity change, negative = inhibition, hits mostly inhibitors; 0.4% of 340,000 active; AID 624288; active = falling curve of any shape with a large fitted effect; inconclusive = falling curve, mostly with a smaller effect; inactive = flat or rising curve; cell line not stated here;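 note: intracellular cAMP measured with PDE inhibitor Ro 20-1724 present during compound exposure; potency is the fitted concentration of half-maximal effect; % is set by controls: 0 for no effect and ±100 for the full control effect; nearly all actives have a fitted effect of over 65% in size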
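HTRF cAMP read-out (cAMP-d2 plus anti-cAMP antibody-K in lysis buffer, 30 min RT). Before lysis, cells are exposed to compounds with […] for 30 min at 37C in DPBS containing Ca/Mg, BSA and Tween 20.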
CtBP-E1A inh – CtBP/E1A binding inhibition. AlphaScreen GST-E1A/His-CtBP binding, 1536-well; stronger effect = lower value; control for the full effect not named in the record. activity change, % (no concentration beside the values). 0.49% of 340,000 active; in the data active means activity change below about -65%; inconclusive means about -30% to -65%; inactive means above about -30%; note: % is set by controls: 0 for no effect and ±100 for the full control effect; compound concentration not given in the record
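In 5 uL wells, 23 nL compound meets equimolar GST-E1A and His-CtBP (5X stock 125 nM each) for 2 h, 37 °C. Beads (5X, 50 ug/mL) then 1 h, 37 °C, dark.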
ClpP mod – qHTS Assay for Activators of ClpP. purified B. subtilis ClpP, FRET peptide cleavage, 20 min. Potency, µM (titrated, usually from 57.5 µM), for the others: at the highest dose activity change, negative = active. 1.9% of 340,000 active; active = well fitted falling curve with a large enough effect; inconclusive = small, poorly fitted or top-dose-only effect; inactive = no such curve, though single readings can be large or run the other way; note: potency is the fitted concentration of half-maximal effect; the source files actives as falling curves though it sought activators and does not explain the sign; nearly all actives have a fitted effect of over 65% in size; many hits overshoot -100%
Target sequence (P80244 whole entry, looked up): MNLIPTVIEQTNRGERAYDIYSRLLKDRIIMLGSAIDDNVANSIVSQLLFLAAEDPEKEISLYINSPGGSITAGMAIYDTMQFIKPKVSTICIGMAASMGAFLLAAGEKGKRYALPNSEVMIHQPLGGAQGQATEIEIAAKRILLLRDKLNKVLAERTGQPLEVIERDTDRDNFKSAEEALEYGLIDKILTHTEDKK
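FRET quenching reversal measured ClpP activation: 10 microg/mL B. subtilis ClpP at pH 8 with the FRET-FV decapeptide, read at 430 nm after 320 nm excitation. The 20-min minus 0-min signal was scaled between DMSO/no-enzyme wells and ADEP (5.8 microM final).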
Sfp PPTase inh – Sfp phosphopantetheinyl transferase inhibition | Potency, µM, for the others: max response, negative = inhibition, actives largely listed as inhibitors | Q9F4F7 | 3.5% of 310,000 active | Biochemical Sfp PPTase activity, qHTS | AID 1490; active = well fitted inhibition curve with a large enough effect; inconclusive = small, poorly fitted or top-dose-only effect, or another doubt; inactive = no such curve, though single readings can be large or run the other way;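 note: the enzyme is Sfp with the accession as filed and its product quenches rhodamine fluorescence; potency is the fitted concentration of half-maximal effect; 0% = enzyme reaction without inhibitor and -100% = no enzyme wells; top concentration of the series not given in the record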
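Step 1, compound plus 15 nM Sfp-PPTase, 15 min, room temperature. Step 2, add rhodamine-CoA (5 uM) and BHQ-2-YbbR (12.5 uM). Step 3, read 525/598 nm fluorescence at 0 and 30 min.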
TRPV1 PAM – potentiators of human vanilloid receptor 1 (TRPV1) | potentiation, % at 8.33 µM | Q8NER1 | TRPV1-expressing cells, Fluo-8 calcium influx, capsaicin EC20 potentiation; host cell line not named in the record; control for the full effect not named in the record | 0.02% of 320,000 active; active means potentiation above 80%; inconclusive means 30% to 80%; inactive means below 30%; note: 0% is about no effect
Target sequence (Q8NER1 whole entry, looked up): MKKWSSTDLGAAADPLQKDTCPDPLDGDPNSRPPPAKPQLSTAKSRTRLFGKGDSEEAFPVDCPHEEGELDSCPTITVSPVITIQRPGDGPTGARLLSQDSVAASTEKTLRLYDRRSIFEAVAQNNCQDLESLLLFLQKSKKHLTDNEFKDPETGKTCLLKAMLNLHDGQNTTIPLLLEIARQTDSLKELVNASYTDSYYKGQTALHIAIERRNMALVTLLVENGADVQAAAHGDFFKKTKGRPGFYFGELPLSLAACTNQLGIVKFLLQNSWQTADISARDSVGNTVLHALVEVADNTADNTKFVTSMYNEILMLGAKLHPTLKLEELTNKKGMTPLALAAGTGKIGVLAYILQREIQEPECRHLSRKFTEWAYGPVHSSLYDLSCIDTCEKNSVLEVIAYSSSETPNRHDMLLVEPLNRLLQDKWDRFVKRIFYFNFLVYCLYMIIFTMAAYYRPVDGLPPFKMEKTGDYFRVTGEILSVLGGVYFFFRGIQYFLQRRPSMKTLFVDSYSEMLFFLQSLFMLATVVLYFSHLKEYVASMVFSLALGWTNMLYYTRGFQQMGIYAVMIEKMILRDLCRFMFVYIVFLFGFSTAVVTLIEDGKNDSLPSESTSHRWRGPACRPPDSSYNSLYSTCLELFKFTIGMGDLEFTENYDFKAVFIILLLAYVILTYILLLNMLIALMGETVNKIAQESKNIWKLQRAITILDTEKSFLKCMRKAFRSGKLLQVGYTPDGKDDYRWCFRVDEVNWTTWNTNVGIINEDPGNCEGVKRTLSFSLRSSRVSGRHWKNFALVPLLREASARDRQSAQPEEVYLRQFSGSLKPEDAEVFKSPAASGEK
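Fluo-8 calcium influx in TRPV1-expressing cells, kinetic read (ex 480/em 520 nm). Compound added and read 3 min for agonist activity, followed by capsaicin at EC20 final and 2 min further read for enhancement.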
gsp ag – activates gsp, the McCune-Albright syndrome mutation. 0.13% of 340,000 active. gsp mutant cells, cAMP HTRF, 30 min; control for the full effect not named in the record. Potency, µM (series often up to 76.9 µM), for the others: at the top dose activation (cAMP increase), hits mostly activators; active = well fitted activation curve with a large enough effect; inconclusive = small, poorly fitted or top-dose-only effect, or another doubt; inactive = no such curve, though single readings can be large or run the other way; cell line not stated here;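 note: phosphodiesterase inhibitor Ro 20-1724 added with compounds to block cAMP breakdown; potency is the fitted concentration of half-maximal effect; nearly all actives have a fitted effect of over 60% in size; about a fifth of the inactives were tested at one dose only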
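Cells in DMEM/10% FBS with G418 were pretreated with compounds in DMSO plus […] (300 uM stock) for 30 min at 37C. cAMP was measured by HTRF (cAMP-d2 plus anti-cAMP antibody-K) after 30 min at room temperature.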
Menin MLL FP FL – menin-MLL binding inhibition, fluorescein peptide | 290,000 tested, under 10 active | AID 1766 | FP activity change, % at 61.4 µM | Fluorescence polarization, fluorescein-MLL peptide displacement from menin; inconclusive = falling polarisation curve, or a change in total fluorescence; inactive = total fluorescence flat and polarisation flat or rising; no compound was filed as active; the % refers to the polarisation; negative = inhibition;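 note: % of control where 0% means no effect; inhibitors lower the polarisation; unlabelled MLL peptide was the positive control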
* = called active by the depositor; ? = inconclusive; . = no result given; [ ] = remark or other dose.

Values in the order: gsp ag	TRPV1 PAM	ClpP mod	Menin MLL FP FL	CtBP-E1A inh	Sfp PPTase inh	gsp antagonist
> COC(=O)c1ccc(C(=O)Nc2nnc(-c3cccnc3)o2)cc1
    .	0.6	.	2.4	.	14.7%	.
> CC(C)N1CC(COc2ccc(Cl)cc2Cl)OC1=O (stereo not drawn)
    24.5%	16.5	-1.1%	-1.3	-3.6	9.5%	-1.1%
> COCCNC(=O)c1ccccc1NS(=O)(=O)c1ccc(C)c([N+](=O)[O-])c1
    -24.8%	-1.9	-1.0%	0.3	-14.2	9.1%	-1.6%
> Cc1ccc(NC(=O)c2cc(S(=O)(=O)N(C)C)ccc2N2CCCC2)cc1F
    -9.7%	0.3	-0.7%	-5.3	-1.5	8.0%	-23.8%
> CN(C)CCCNC(=S)N1CCC(c2nc3ccccc3[nH]2)CC1
    -24.1%	2.9	-1.5%	1.9	-12.9	0.8%	-25.6%
> CN(C)c1ccc(C(=O)Nc2ccc(S(=O)(=O)NC3=NCCCCC3)cc2)cc1
    15.5%	10.9	?	0.2	-17.6	2.5%	0.8%
> NC(=O)C1CC=CCC1C(=O)OCC(Cl)=C(Cl)Cl (stereo not drawn)
    1.8%	-13.9	-2.3%	-0.1	4.9	-3.8%	-3.5%
> CC(=O)NCCSCCNC(C)=O
    9.8%	-10.7	-0.7%	-1.0	7.3	1.1%	9.4%
> COc1cc2c(cc1OC)C(C)N(C(=O)C1=NN(c3cccc(C)c3)C(=O)CC1)CC2 (stereo not drawn)
    -40.8%[inhibitor]	3.7	-1.8%	2.3	-3.8	13.5%	-19.5%
> Cc1cnc(NC(=O)CSc2nnc(-c3ccc(Cl)cc3Cl)n2N)s1
    -39.3%[inhibitor]	16.1	1.4%	3.8	-0.4	-40.2%	-9.0%
> Cc1ccn2cc(-c3cccc(NC(=O)C(C)C)c3)nc2c1
    9.9%	1.3	3.8%	-0.1	-6.4	17.2%	-7.1%
> O=C(O)c1ccccc1-c1ccccc1C(=O)NCc1ccccc1Cl
    13.1%	?	-1.6%	2.4	-3.8	10.6%	3.8%
> COc1ccc(S(=O)(=O)N2CCN(Cc3ccc4c(c3)OCO4)CC2)cc1F
    8.6%[15.4 µM]	3.0	.	.	-3.6	4.5%	-4.1%
> NC(=O)c1cnn(Cc2ccc(Cl)cc2)c1N
    26.2%	-15.7	-2.2%	-4.0	1.6	2.5%	12.9%
> CC1CCN(C(=O)CCc2ccc(Oc3cc([N+](=O)[O-])cc([N+](=O)[O-])c3)cc2)CC1
    -29.4%	-14.3	-1.3%	3.4	?	?	-21.4%
> COc1ccccc1OCc1nc2ccccc2s1
    -4.6%	-3.2	-5.3%	0.3	30.3	-10.2%	-18.6%
> O=C(NC1CCCCC1)C(c1cccs1)N(C(=O)c1ccccn1)c1ccccc1 (stereo not drawn)
    -0.4%	-1.0	-0.5%	0.9	.	-0.8%	?
> Cc1ccc(NS(=O)(=O)c2cccc(C(=O)OCC(=O)NCc3ccco3)c2)cc1
    -63.6%[inhibitor]	21.6	0.3%	3.7	-3.7	-22.5%	-4.2%
> O=C(CNC(=O)c1ccc2c(c1)S(=O)(=O)N=C1CCCCCN12)Nc1ccc(F)c(F)c1
    -0.2%	-4.6	0.9%	.	4.6	.	-2.4%
> CC(C)CC(NC(=O)c1ccc(Cl)cc1Cl)C(=O)O (stereo not drawn)
    0.0%	-2.1	-1.2%	-1.3	-0.6	12.4%	8.1%
> CCOC(=O)C1CCCN(C(=O)c2cn(CC)c3ccc(S(=O)(=O)N(C)C)cc3c2=O)C1 (stereo not drawn)
    ?	19.8	-4.8%	1.2	5.2	13.1%	6.9%
> CC(=O)c1c(C)[nH]c(C(=O)NNC(=O)COc2ccc(Cl)cc2C)c1C
    1.6%[15.4 µM]	4.7	.	.	0.7	.	-4.1%
> Cc1nc2c(C)cccn2c(=O)c1NC(=O)COc1ccccc1
    11.7%[15.4 µM]	-8.3	-3.8%	.	5.2	.	13.4%
> C/C(=N\NS(=O)(=O)c1ccc(C)cc1)c1ccc(C)s1
    0.0%	8.6	1.5%	5.2	6.8	5.9%	-27.4%
> CSc1ccc(Cl)c(C(=O)NNC(=O)c2csc(N3CCOCC3)n2)c1
    22.5%[15.4 µM]	28.9	.	.	1.0	.	8.5%
> O=c1[nH][nH]c(-c2ccccc2)c1C=Nc1ccc(C(F)(F)F)cc1
    -2.2%	8.7	0.1%	0.4	.	11.0%	-0.3%
> O=C(O)/C=C/c1coc2ccccc2c1=O
    25.4%	-6.8	-3.5%	5.7	2.6	5.9%	-2.2%
> C/C(=N\n1c(C)cc(C)c(C#N)c1=O)c1cccs1
    -31.8%[inhibitor]	.	-0.9%	0.2	-20.9	8.5%	4.4%
> Cc1cc(Cl)ccc1NC(=S)N1CCN(Cc2ccc3c(c2)OCO3)CC1
    1.5%	-11.6	0.1%	2.7	-5.6	2.3%	-11.0%
> Cc1cc(N/N=C/c2ccccc2[N+](=O)[O-])nc(-n2nc(C)cc2C)n1
    -5.9%[15.4 µM]	9.5	-2.9%	-0.2	-3.7	5.5%	-13.0%
> Cc1cccc(N(C(=O)CCC(=O)Nc2cc(C)on2)C(C(=O)NC2CCCC2)c2ccc(C)o2)c1 (stereo not drawn)
    10.8%	-12.4	-3.3%	1.1	-4.6	-7.1%	-8.2%
> Cc1ccc(OCc2cc(C(=O)NCC(C)c3ccccc3)no2)cc1C (stereo not drawn)
    ?	1.3	-1.4%	.	20.4	1.0%	-20.7%
> Cc1nc(C(=O)NNC(=O)c2cccc(Cl)c2)c(C(F)(F)F)o1
    -2.2%[15.4 µM]	0.9	.	-2.8	3.0	-5.1%	14.1%
> COc1ccc(-c2cn(-c3ccc(Br)cc3)c3[n+]2CCS3)cc1
    -32.1%[inhibitor]	1.1	1.2%	-0.7	-9.1	8.5%	8.8%
> Clc1ccc(-c2nnc(SCc3nc(-c4ccccc4)no3)o2)cc1
    ?	.	-1.6%	3.7	6.0	-5.7%	-4.6%
> N#Cc1cc2c(nc1SCc1cccnc1)CCC2
    13.2%	13.6	-8.5%	6.2	-0.4	-2.1%	1.9%
> CC(=O)c1ccc2c(c1)OCCOCCOCCOCCO2
    9.0%	-1.4	-13.9%	-0.4	.	15.6%	-2.2%
> CCSc1nnc(NC(=O)c2nn(C(C)C)c(=O)c3ccccc23)s1
    22.7%	?	-2.3%	3.4	-6.6	8.8%	-16.1%
> O=C(NCc1cccs1)C1CCC(CNS(=O)(=O)c2ccccc2)CC1 (stereo not drawn)
    -0.3%[15.4 µM]	2.4	.	-1.3	0.0	3.0%	.
> CCn1cc(C(=O)NCc2ccccc2)c(=O)c2cc(F)c(N3CCN(C(=O)c4ccco4)CC3)cc21
    -2.6%	2.7	14.1µM*	1.8	-9.0	4.4%	?
> Cc1ccc(NC(=O)CCS(=O)(=O)c2cc3[nH]c(=O)c(=O)[nH]c3cc2C)cc1
    33.4%	-2.0	-16.0%	0.0	-0.9	9.8%	9.8%
> O=C1CN(C(=O)COC(=O)CCS(=O)(=O)c2ccccc2Cl)c2ccccc2N1
    -15.5%	.	0.7%	.	.	.	-7.9%
> CN(CCO)S(=O)(=O)c1ccc2c(c1)C(=O)c1cc(S(=O)(=O)N(C)CCO)ccc1-2
    ?	-11.9	0.0%	4.3	6.0	0.6%	8.91µM*
> CC1(C)CC(=O)C2=C(C1)N(c1ccc(F)cc1)C(N)=C(C#N)C2c1cccs1 (stereo not drawn)
    6.0%	-4.6	-15.3%	6.8	-3.1	-0.3%	-6.3%
> Cc1ccc(NS(=O)(=O)c2ccc3oc(=O)ccc3c2)cc1Cl
    -36.3%[inhibitor]	-9.5	-1.1%	-0.6	.	4.7%	-9.0%
> Nc1nonc1-n1nnc(C(=O)N/N=C/c2ccc(OCc3ccccc3F)cc2)c1CNc1ccccc1
    -62.4%[inhibitor]	15.2	0.0%	2.6	5.0	22.9%	6.0%
> C/C(=N\NC(=O)c1ccc(CSc2nncn2C)cc1)c1ccc2ccccc2c1
    -3.2%	-0.6	-3.9%	1.5	.	7.9%	7.6%
> COc1cc(C(=O)NCCOc2ccccc2C)c(Br)c(OC)c1OC
    -13.0%	11.0	0.7%	11.9	6.1	4.7%	-14.4%
> COc1cc(CNc2ccc(S(N)(=O)=O)cc2)ccc1OCc1ccccc1F
    27.7%	.	-6.0%	.	-15.9	.	-6.1%
> C=CCNc1nc(Nc2ccccc2F)nc(OCC)n1
    -10.4%	-23.0	.	1.3	-23.1	4.3%	-3.3%
> Clc1cccc(Nc2nc(-c3ccncc3)nc3ccccc23)c1
    -2.1%[15.4 µM]	-4.4	1.2%	1.9	3.5	-7.6%	-20.1%
> COc1ccc(-c2noc3c2-c2nc(-c4c(F)cccc4F)sc2CC3)cc1
    .	3.6	-9.8%	2.8	1.9	-16.3%	4.6%
> CC(C)=CCC12Oc3cc(O)ccc3C1(O)Oc1cc3c(c(O)c1C2=O)C=CC(C)(C)O3 (stereo not drawn)
    .	.	6.6%	.	-8.4	.	-6.8%
> Cn1nnnc1SCCNCc1cccc2ccccc12
    -21.8%	-1.5	-1.2%	-1.6	1.9	0.6%	1.2%
> COc1ccc(NC(=O)CCC(=O)c2cc(C)sc2C)cc1
    -0.4%[15.4 µM]	-25.0	0.3%	.	3.7	.	-3.4%
> CCOC(=O)C1CCCc2c1[nH]c1c(C(=O)O)cccc21 (stereo not drawn)
    13.6%	3.3	-6.2%	-1.5	10.3	10.1%	-14.8%
> C=C1C(O)C[C@H]2C(=C)CCC3[C@H](OC(=O)[C@]3(O)CO)[C@@H]12 (stereo partly drawn)
    ?	1.1	-1.5%	-0.4	0.3	4.3%	5.5%
> N#C/C(=C\Nc1ccc2cn[nH]c2c1)c1nc(-c2ccccc2)cs1
    -5.9%[15.4 µM]	?	?	14.7	1.1	56.2µM*	-13.3%
> O=C(NCc1cc(C(F)(F)F)cc(C(F)(F)F)c1)C1CC(c2cccc([N+](=O)[O-])c2)=NO1 (stereo not drawn)
    -108.1%[inhibitor]	-3.4	1.4%	7.5	.	-9.4%	-13.3%

High-throughput results deposited in PubChem by National Center for Advancing Translational Sciences (NCATS).

Hits appear at their usual frequency. About 5.3% of those tested had a hit in this group.
